Compound activity (PubChem)
HIV Env fusion – inhibitors of HIV-1 Env-driven cell-cell fusion, primary screen, HeLa-JRFL effector, CEM21 target cells, luciferase; 360,000 compounds, 1.1% hits; inhibition, % at 12.3 µM; AID 651610, 2012;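 active = mean replicate inhibition score of at least 50 and every replicate individually at or above 50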;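 also: 0% = plate neutral controls and 100% = maraviroc near 300 nM; one replicate is shown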
* marks the source's active call; other numbers are inactive results; [ ] = remark or other dose. The list is partial. The share of hits here may be higher or lower than overall.

SMILES	HIV Env fusion
C[C@H]1[C@H](c2ccccc2)Oc2cccc(N3CCCC3)c2S(=O)(=O)N1Cc1cccc(F)c1	5.9
C[C@H](CO)N1C[C@H](C)[C@H](CN(C)C(=O)Nc2ccc(C(F)(F)F)cc2)Oc2ccc(NS(=O)(=O)c3ccc(Cl)cc3)cc2C1=O	-12.5[16.7 µM]
CCOC(=O)C1(C(=O)OCC)N=C(c2ccccc2)C=C1c1ccccc1	7.8
CN(C)C(=O)C[C@@H]1CC[C@H]2[C@@H](COC[C@H](O)CN2C(=O)C2CCCC2)O1	-10.0[16.7 µM]
CC(C)[C@H]1COCc2cn(nn2)CCCC(=O)N1	9.4[16.7 µM]
C[C@@H]1CCCCO[C@@H](CN(C)C(=O)Nc2cccc3ccccc23)[C@@H](C)CN([C@H](C)CO)C(=O)c2cc(N(C)C)ccc2O1	-5.6[16.7 µM]
CCCNC(=O)N[C@H]1CC[C@H](CCn2cc(-c3cccc(F)c3)nn2)O[C@H]1CO	31.5[16.7 µM]
CN(C)c1ccc2c(c1)[C@H]1C[C@H](CC(=O)NCCc3ccccc3)O[C@H](CO)[C@H]1O2	-1.6[16.7 µM]
CO[C@@H]1CC[C@H]2CCOc3ccc(C#N)cc3C(=O)N(C)C[C@H](c3ccccc3)CC(=O)N(C)C[C@H]1O2	-108.9[16.7 µM]
C#CCNC(=O)C1=C[C@H](C2CC2)[C@@H](CCCO)[C@H](OCC)O1	1.6[16.7 µM]
CC(C)CC(=O)c1c(O)cc(O)c2c1OC1=C(C(=O)C(C)(C)C(=O)C1(C)C)C2CC(C)C (stereo not given)	3.0
CCCC#Cc1ccc2c(c1)O[C@H](CN(C)Cc1ccccc1)[C@@H](C)CN([C@@H](C)CO)S2(=O)=O	7.0[16.7 µM]
Cc1noc(C)c1NC(=O)Nc1ccc2c(c1)C(=O)N(C)[C@H]1CC[C@@H](CC(=O)N[C@@H]3CCN(Cc4ccccc4)C3)O[C@H]1CO2	4.8[16.7 µM]
CN1CCN(C(=O)c2cc3c(c(-c4cccc(-c5cccc(C(=O)N(C)C)c5)c4)n2)[C@H](CCO)N([S@@](=O)C(C)(C)C)C3)CC1	14.1[16.7 µM]
COC(=O)c1cc2c(c3c4cc(C)ccc4n(S(=O)(=O)c4cccc(C)c4)c13)C(=O)N(C)C2	-4.4
C[C@@H]1ON(C)[C@H]2C[C@H]3c4cc(-c5ccccc5)ccc4CCN3C[C@@H]12	6.8
COc1cccc(C(=O)Nc2ccc3c(c2)C(=O)N(C)C[C@H](OC)[C@@H](C)CN(C(C)=O)[C@H](C)CO3)c1	-0.6[16.7 µM]
C[C@H](CO)N1C[C@H](C)[C@H](CN(C)Cc2ccc(-c3ccccc3)cc2)OCc2cnnn2CCCC1=O	15.6[16.7 µM]
COc1ccc(NC(=O)N(C)C[C@@H]2Oc3ccc(N(C)C)cc3CC(=O)N([C@@H](C)CO)C[C@H]2C)cc1	-6.4[16.7 µM]
CN(C)C(=O)c1cccc(-c2ccc3c(c2)[C@@H]2[C@@H](CCN2C(=O)C2CCCC2)[C@@H](CO)N3)c1	-21.2[16.7 µM]
C[C@@H]1CN([C@@H](C)CO)C(=O)CCCn2cc(nn2)CO[C@@H]1CN(C)C(=O)Nc1cccc(Oc2ccccn2)c1	15.2[16.7 µM]
C#CCNC(=O)C[C@H]1C[C@@]2(C(=O)OC)C(=C[C@H](COCc3ccccc3)O[C@@H]2C)N(CCC2=CCCCC2)C1=O	-5.4
C[C@H]1CN([C@@H](C)CO)C(=O)CCCn2cc(nn2)CO[C@@H]1CN(C)Cc1ccc(Cl)c(Cl)c1	-0.1[16.7 µM]
CO[C@H]1CN(C)C(=O)c2cc(NC(C)=O)ccc2OC[C@@H](C)N(C(=O)c2ccc(F)cc2)C[C@@H]1C	-5.6[16.7 µM]
CC(C)NC(=O)Nc1ccc2c(c1)C(=O)N([C@@H](C)CO)C[C@H](C)[C@@H](CN(C)C(=O)Nc1cccc3ccccc13)O2	4.3[16.7 µM]
Cc1ccc(NC(=O)Nc2ccc3c(c2)C(=O)N(C)[C@H]2CC[C@H](CC(=O)NCC(F)(F)F)O[C@@H]2CO3)cc1	-15.3[16.7 µM]
C[C@H]1CN([C@@H](C)CO)C(=O)c2c(c3ccccc3n2C)-c2ccccc2CO[C@@H]1CN(C)C(=O)[C@@H]1CCCN1C	-23.2[16.7 µM]
O=C(Cc1ccccn1)N1CC(=O)N2[C@@H](CO)[C@@H](c3ccc(C#CC4CCCC4)cc3)[C@@H]2C1	-25.0[16.7 µM]
Nc1[nH]c(C(=O)c2ccc(Br)cc2)c(-c2ccc(Cl)cc2Cl)c1C(=O)NCCc1c[nH]c2ccccc12	35.1
COCCNC(=O)c1cc2c(c(-c3cccc(-c4cccc(F)c4)c3)n1)[C@@H](CCO)N(S(=O)C(C)(C)C)C2 (stereo not given in full)	8.7[16.7 µM]
CO[C@H]1CN(C)C(=O)c2cc(NC(=O)Nc3cccc(F)c3)ccc2OC[C@@H](C)N(C(=O)C2CC2)C[C@H]1C	3.6[16.7 µM]
N#C[C@H]1[C@H](c2ccccc2-c2ccccc2F)[C@H](CO)N1C(=O)c1ccccn1	-14.1[16.7 µM]
O=C(C1CCOCC1)N1CC(=O)N2[C@H](CO)[C@@H](c3ccc(C#CC4CCCC4)cc3)[C@H]2C1	51.2[16.7 µM]
CO[C@H]1CN(C)C(=O)c2ccc(NC(=O)c3ccccc3)cc2OC[C@@H](C)N(C(=O)C2CC2)C[C@H]1C	-16.5[16.7 µM]
CC(C)C#Cc1ccc([C@H]2[C@@H](CO)N3C(=O)CN(C(=O)NC4CCCCC4)C[C@H]23)cc1	7.5[16.7 µM]
Cc1noc(C)c1NC(=O)Nc1ccc2c(c1)C(=O)N([C@H](C)CO)C[C@H](C)[C@@H](CN(C)CC1CC1)OCCCC[C@@H](C)O2	9.7[16.7 µM]
COc1cccc(S(=O)(=O)Nc2ccc3c(c2)[C@H]2C[C@H](CC(=O)NCc4ccc(Cl)cc4)O[C@H](CO)[C@H]2O3)c1	42.0[16.7 µM]
C[C@@H]1CN([C@@H](C)CO)C(=O)c2cc(NS(=O)(=O)c3ccc(Cl)cc3)ccc2O[C@@H]1CN(C)C(=O)Nc1ccc(C(F)(F)F)cc1	3.6[16.7 µM]
COc1ccc(CNC(=O)N(C)C[C@@H]2OCc3ccccc3-c3c(n(C)c4ccccc34)C(=O)N([C@H](C)CO)C[C@H]2C)cc1	6.7[16.7 µM]
CO[C@H]1CN(C)C(=O)c2ccc(NS(=O)(=O)c3cn(C)cn3)cc2OC[C@@H](C)NC[C@H]1C	21.6[16.7 µM]
COCC(=O)Nc1ccc2c(c1)[C@@H]1C[C@@H](CC(=O)N[C@H](C)c3ccccc3)O[C@H](CO)[C@@H]1O2	-5.6[16.7 µM]
O=C(C[C@H]1C=C[C@H](NC(=O)C2CCOCC2)[C@@H](CO)O1)Nc1nccs1	-29.1[16.7 µM]
COc1ccc2c3c([nH]c2c1)[C@@H](CO)N(C(=O)Nc1cccc(F)c1)CC31CCN(S(=O)(=O)c2ccccc2)CC1	80.9*[16.7 µM]
CC=Cc1ccc2n(c1=O)C[C@H]1[C@H](CO)[C@@H](C(=O)NCCOC)[C@@H]2N1Cc1nccs1 (mixture of isomers)	11.2[16.7 µM]
C[C@@H]1CN([C@@H](C)CO)C(=O)c2cc(NC(=O)CCN3CCOCC3)ccc2O[C@H]1CN(C)Cc1ccc(Cl)c(Cl)c1	-21.5[16.7 µM]
COc1ccc(OC(=O)N(C)C[C@H]2OCc3ccccc3-c3ccccc3C(=O)N([C@H](C)CO)C[C@@H]2C)cc1	18.0[16.7 µM]
C[C@@H]1CN([C@@H](C)CO)C(=O)c2ccccc2-c2ccccc2CO[C@H]1CN(C)S(=O)(=O)c1cn(C)cn1	24.4[16.7 µM]
O=C([C@H]1[C@H](CO)[C@H]2Cn3c(ccc(-c4ccncc4)c3=O)[C@@H]1N2CCC(F)(F)F)N1CCCCC1	9.4[16.7 µM]
CCCN1C[C@@H](C)[C@H](OC)CN(C)C(=O)c2cc(NC(=O)COC)ccc2OC[C@@H]1C	-5.5[16.7 µM]
C[C@H](CO)N1C[C@H](C)[C@H](CN(C)Cc2cccc(C(F)(F)F)c2)OCc2cn(nn2)CCCC1=O	-3.0[16.7 µM]
COc1ccccc1CN1[C@@H]2Cn3c(ccc(C4=CCCC4)c3=O)[C@H]1[C@@H](C(=O)N(C)C)[C@@H]2CO	-4.6[16.7 µM]
C[C@H]1CN([C@@H](C)CO)C(=O)Cc2cc(NC(=O)Nc3cccc4ccccc34)ccc2O[C@@H]1CN(C)S(C)(=O)=O	-20.9[16.7 µM]
COCC(=O)Nc1ccc2c(c1)C(=O)N(C)C[C@H](OC)[C@H](C)CN(C(=O)c1ccccc1)[C@@H](C)CO2	-21.5[16.7 µM]
COc1ccc2c3c([nH]c2c1)[C@H](CO)N(C(=O)c1cccnc1)CC31CCN(C(=O)Nc2cccc(F)c2)CC1	-22.7[16.7 µM]
O=C(C[C@H]1C[C@@H]2c3cc(NS(=O)(=O)c4ccccc4)ccc3O[C@@H]2[C@@H](CO)O1)N1CCOCC1	-21.6[16.7 µM]
CCCN1C[C@@H](C)[C@H](OC)CN(C)C(=O)c2ccc(NC(=O)c3ccc(F)cc3)cc2OC[C@@H]1C	-6.0[16.7 µM]
O=C(C[C@@H]1C=C[C@H](NC(=O)CCN2CCCCC2)[C@H](CO)O1)Nc1ccccc1	4.4[16.7 µM]
C[C@@H]1CCCCO[C@H](CN(C)C(=O)NC2CCCCC2)[C@H](C)CN([C@@H](C)CO)C(=O)c2cc(NS(C)(=O)=O)ccc2O1	-8.9[16.7 µM]
COc1ccc(S(=O)(=O)N(C)C[C@H]2Oc3c(NC(=O)Nc4ccccc4)cccc3C(=O)N([C@H](C)CO)C[C@H]2C)cc1	0.6[16.7 µM]
O=C(c1ccc2c(c1)C(=O)NC2=O)c1ccc2c(c1)C(=O)NC2=O	-11.4

The last 7 entries of the part before open the next one.
SMILES	HIV Env fusion
COc1ccc2c3c([nH]c2c1)[C@H](CO)N(C(=O)c1cccnc1)CC31CCN(C(=O)Nc2cccc(F)c2)CC1	-22.7[16.7 µM]
O=C(C[C@H]1C[C@@H]2c3cc(NS(=O)(=O)c4ccccc4)ccc3O[C@@H]2[C@@H](CO)O1)N1CCOCC1	-21.6[16.7 µM]
CCCN1C[C@@H](C)[C@H](OC)CN(C)C(=O)c2ccc(NC(=O)c3ccc(F)cc3)cc2OC[C@@H]1C	-6.0[16.7 µM]
O=C(C[C@@H]1C=C[C@H](NC(=O)CCN2CCCCC2)[C@H](CO)O1)Nc1ccccc1	4.4[16.7 µM]
C[C@@H]1CCCCO[C@H](CN(C)C(=O)NC2CCCCC2)[C@H](C)CN([C@@H](C)CO)C(=O)c2cc(NS(C)(=O)=O)ccc2O1	-8.9[16.7 µM]
COc1ccc(S(=O)(=O)N(C)C[C@H]2Oc3c(NC(=O)Nc4ccccc4)cccc3C(=O)N([C@H](C)CO)C[C@H]2C)cc1	0.6[16.7 µM]
O=C(c1ccc2c(c1)C(=O)NC2=O)c1ccc2c(c1)C(=O)NC2=O	-11.4
COc1ccccc1CNC(=O)C[C@@H]1C[C@@H]2c3cc(NC(=O)CN(C)C)ccc3O[C@@H]2[C@@H](CO)O1	2.2[16.7 µM]
COc1cc(N2CCC(O)CC2)ccc1Nc1cc(Nc2ccccc2S(=O)(=O)C(C)C)c2cc[nH]c2n1	-42.3
COc1ccc(-c2nnn3c2C2c4cc(-c5cccc(F)c5)ccc4CCN2C(=O)C3)cc1 (stereo not given)	24.2
CN1OC[C@@H]2CN3C(=Nc4cc(C(F)(F)F)cc(C(F)(F)F)c4)Sc4ccccc4[C@@H]3C[C@@H]21	23.4
C[C@@H]1CN([C@@H](C)CO)C(=O)c2c(c3ccccc3n2C)-c2ccccc2CO[C@H]1CN(C)S(=O)(=O)c1cn(C)cn1	-14.6[16.7 µM]
O=C(C1CCCC1)N1CC2(C1)[C@@H](c1ccccc1)[C@@H](CO)N2Cc1nccs1	-4.6[16.7 µM]
CCCNC(=O)N1C[C@@H](C)[C@H](OC)CN(C)C(=O)c2ccc(NS(=O)(=O)CC(F)(F)F)cc2OC[C@H]1C	4.5[16.7 µM]
CCCN1C[C@H](C)[C@H](OC)CN(C)C(=O)c2cc(NC(=O)COC)ccc2OC[C@@H]1C	-15.4[16.7 µM]
C[C@H](O)[C@@H]1CN2CCc3c([nH]c4c(-c5ccccc5)cccc34)[C@@H]2C[C@@H]1N(C)C(=S)NCCc1ccccc1	1.9
Cc1noc(C)c1NC(=O)Nc1ccc2c(c1)C(=O)N([C@@H](C)CO)C[C@@H](C)[C@H](CN(C)CC1CC1)OCCCC[C@@H](C)O2	34.9[16.7 µM]
Cc1ccc(S(=O)(=O)N(C)C[C@@H]2Oc3ccc(NS(=O)(=O)c4ccc(Cl)cc4)cc3C(=O)N([C@@H](C)CO)C[C@H]2C)cc1	63.7*[16.7 µM]
O=C(C[C@@H]1CC[C@@H]2[C@H](COC[C@H](O)CN2Cc2nccs2)O1)NCc1ccc(F)cc1	-12.5[16.7 µM]
COc1cccc(NC(=O)N(C)C[C@H]2OCc3ccccc3-c3ccccc3C(=O)N([C@H](C)CO)C[C@H]2C)c1	-6.0[16.7 µM]
CO[C@@H]1CN(C)C(=O)c2ccc(NC(C)=O)cc2OC[C@@H](C)N(Cc2cncnc2)C[C@@H]1C	57.2*[16.7 µM]
CO[C@@H]1CN(C)C(=O)c2ccc(NC(=O)Nc3cccc(F)c3)cc2OC[C@@H](C)N(C(C)=O)C[C@@H]1C	-0.7[16.7 µM]
COc1ccc(CN(C)C[C@H]2Oc3ccc(NC(=O)NC(C)C)cc3C(=O)N([C@@H](C)CO)C[C@H]2C)cc1	7.4[16.7 µM]
CO[C@H]1CN(C)C(=O)c2ccc(NS(=O)(=O)c3ccccc3)cc2OC[C@H](C)N(Cc2nccs2)C[C@@H]1C	-18.7[16.7 µM]
COc1ccc(NC(=O)N(C)C[C@@H]2Oc3ccc(NS(=O)(=O)c4ccc(F)cc4)cc3CC(=O)N([C@@H](C)CO)C[C@H]2C)cc1	11.8[16.7 µM]

A few values from above:
HIV Env fusion, CO[C@@H]1CN(C)C(=O)c2ccc(NC(C)=O)cc2OC[C@@H](C)N(Cc2cncnc2)C[C@@H]1C stands at 57.2*[16.7 µM]
HIV Env fusion, CN1OC[C@@H]2CN3C(=Nc4cc(C(F)(F)F)cc(C(F)(F)F)c4)Sc4ccccc4[C@@H]3C[C@@H]21 stands at 23.4
